Bioassay records (PubChem)
H5N1 antiviral: antiviral screen in MDCK cells, H5N1 avian flu; actives 0.07% (n = 96,000); inhibition, % at 50 µM; AID 740; cytopathic effect, luminescence, 72 h; active compounds read high; no value below 0 was filed and about half of the inactive calls have no number; reference of the scale not given here; in the data active means inhibition above about 25%
Numbers without * were called inactive; i = inactive; & = joins results of further samples. These rows are one share of the data; rates above refer to the full screens.

No. | SMILES | H5N1 antiviral
1 | COc1ccc(S(=O)(=O)N2CCCC(C(=O)Nc3cccc(C(C)=O)c3)C2)cc1 (stereo unspecified) | 0.2
2 | Cc1ccc(OCCCC(=O)Nc2ccc(N3CCOCC3)cc2)cc1 | 0.1
3 | CCOC(=O)CN(C(=O)CSc1nnc(-c2ccc(OC)c(OC)c2)o1)c1ccccc1 | 1.2
4 | Cc1cccc(NC(=O)CSc2nnc(Cn3nnc(-c4ccccc4)n3)n2-c2ccccc2)c1 | i
5 | O=C(O)c1ccccc1SCC(=O)N1CCCCC1 | i
6 | COc1ccc(-n2c(Cc3cccn3C)nnc2SCC(=O)N2CCCc3ccccc32)cc1 | 1.5
7 | O=C(c1cccnc1)N1CCN(C(=O)c2ccccc2F)CC1 | i
8 | Cc1c(Cl)cccc1N=c1c([N+](=O)[O-])nn(-c2ccccc2)n1O | i
9 | COc1ccc2o/c(=N\O)c(C(=O)Nc3ccccc3OC)cc2c1 | 1.1
10 | Cn1c(SCC(=O)C(C)(C)C)nnc1-c1ccccn1 | 0.2
11 | N#C/C(=C/c1ccc(N2CCCCCC2)o1)c1ccc(F)cc1 | 3.7
12 | Cc1nn(-c2cccc3cccnc23)c(=O)c2ccccc12 | 1.4
13 | Cc1cccc(-n2c(Cc3ccccc3)nnc2SCC(=O)N2CCOCC2)c1 | 1.6
14 | CCOC(=O)c1cc2c(C(F)(F)F)cc(-c3cccnc3)nc2o1 | 1.3
15 | CCOC(=O)c1[nH]c(C)c(C(=O)N2CCN(C(=O)c3ccco3)CC2)c1C | i
16 | O=S(=O)(Cc1cc(Cl)nc(-c2ccccc2)n1)c1ccccc1 | 1.8
17 | O=C(NCc1cccnc1)C1COc2ccccc2O1 (stereo unspecified) | 0.2
18 | CC(C)CN(CC(C)C)c1nnc(NC(=O)Cn2c(=O)oc3ccccc32)s1 | 1.1
19 | CCOC(=O)C1=C(N)Oc2cc(C)oc(=O)c2C12C(=O)N1c3c(cccc32)C(C)CC1(C)C (stereo unspecified) | i
20 | O=C(CSc1ccc2nnc(-c3ccccn3)n2n1)NCc1ccc2c(c1)OCO2 | 4.7
21 | CCOC(=O)n1c(=O)n(Cc2ccc(Cl)cc2Cl)c2ccccc21 | 1.0
22 | NC(=O)c1ccc(NC(=O)CSC2=Nc3ccccc3C3CC=NN23)cc1 (stereo unspecified) | 0.9
23 | CC(C)CNc1cc(N2CCCC2)ccc1[N+](=O)[O-] | 0.4
24 | Cc1cccc(-c2nc(=S)c3c(o2)CCCC3)c1 | 0.3

Arranged by number of heavy atoms (rising): part of the list above.
No. | SMILES | H5N1 antiviral
24 | Cc1cccc(-c2nc(=S)c3c(o2)CCCC3)c1 | 0.3
17 | O=C(NCc1cccnc1)C1COc2ccccc2O1 (stereo unspecified) | 0.2
22 | NC(=O)c1ccc(NC(=O)CSC2=Nc3ccccc3C3CC=NN23)cc1 (stereo unspecified) | 0.9
18 | CC(C)CN(CC(C)C)c1nnc(NC(=O)Cn2c(=O)oc3ccccc32)s1 | 1.1
20 | O=C(CSc1ccc2nnc(-c3ccccn3)n2n1)NCc1ccc2c(c1)OCO2 | 4.7
19 | CCOC(=O)C1=C(N)Oc2cc(C)oc(=O)c2C12C(=O)N1c3c(cccc32)C(C)CC1(C)C (stereo unspecified) | i

Later entries:
No. | SMILES | H5N1 antiviral
25 | O=C(CCS(=O)(=O)c1cccc2nsnc12)NC1CCCCCC1 | 2.4
26 | Cc1scc(C(=O)N/N=C/c2ccc(OC(C)C)cc2)c1C | i
27 | CCOC(=O)C1CCN(c2cc(=O)n(Cc3ccc(F)cc3)c(=O)[nH]2)CC1 | 0.3
28 | Cc1ccc(N2C(=O)CC(Sc3ncn[nH]3)C2=O)cc1C (stereo unspecified) | i
29 | CCC(Sc1ncccc1C(=O)OC(C)C)C(=O)N1CCOCC1 (stereo unspecified) | 1.4
30 | Cc1cccc(NC(=O)CCN2C(=O)C3C4C=CC(C4)C3C2=O)c1 (stereo unspecified) | i
31 | O=C1c2oc3ccccc3c(=O)c2C(c2cccc(F)c2)N1CCCO (stereo unspecified) | 0.2
32 | CCc1cccc2c(C(=O)CSc3nnc(-c4ccoc4C)n3C)c[nH]c12 | i
33 | CCCNC(=O)NCCc1ccncc1 | i
34 | O=C(Oc1ccc2c(c1)OCO2)c1ccc(F)cc1Cl | i
35 | CCCCOc1ccccc1NC(=O)c1ccco1 | i
36 | CC(C)C(C)(C#N)NC(=O)CSc1nc2scc(-c3ccco3)c2c(=O)n1-c1ccccc1 (stereo unspecified) | 1.9
37 | COC(=O)c1ccc(/C=C/C(=O)c2ccc(OC)c(OC)c2)cc1 | 3.3
38 | CC(=O)Nc1ccc(S(=O)(=O)NCCSc2ccccn2)cc1 | 0.8
39 | CN(C)S(=O)(=O)Oc1ccsc1C(=O)Nc1ccc(Cl)c(Cl)c1 | i
40 | COc1ccc(CCNC(=O)c2nonc2N)cc1OC | 0.2
41 | CC(=O)C1=C(O)C(=O)N(C)C1c1ccccc1F (stereo unspecified) | i
42 | COc1ccc(C2C(C(=O)N3CCCC3)c3cc(OC)c(OC)cc3C(=O)N2C)cc1 (stereo unspecified) | 0.1
43 | CCCn1cnc2sc(C(N)=O)c(C)c2c1=O | 0.8
44 | CC(C)NS(=O)(=O)c1ccc(OCC(=O)NCc2ccccc2)cc1 | 1.0
45 | O=S(=O)(N/N=C1/CC(c2ccccc2)Oc2ccccc21)c1ccc(Br)cc1 (stereo unspecified) | 20
46 | CCSC1=C(C#N)C2(CCCCC2)C(C#N)C(=O)N1 (stereo unspecified) | 0.6
47 | O=C(NCC(=O)N(c1cnc2ccccc2c1)C(C(=O)NC1CCCC1)c1ccncc1)c1ccco1 (stereo unspecified) | i
48 | Cc1ccc2nc(N3CCN(S(=O)(=O)c4ccc(C)c(Cl)c4)CC3)c(C#N)cc2c1 | 2.0
49 | S=c1[nH]ncn1-c1ccccn1 | 0.1
50 | COc1ccc(Cl)c(Cn2c(NCCCN(C)C)nc3c2c(=O)n(C)c(=O)n3C)c1 | 2.8
51 | CCOC(=O)c1c(C)[nH]c(C(=O)OCC(=O)N2CC(C)OC(C)C2)c1C (stereo unspecified) | i
52 | O=C(COc1ccc2ccccc2c1CN1CCOCC1)N1CCc2ccccc21 | 0.0
53 | O=C(O)c1sccc1SCc1ccc(Cl)c(Cl)c1 | i
54 | Cc1ccc(-c2nc3ccccc3o2)cc1NC(=S)NC(=O)/C=C/c1ccco1 | 0.9
55 | CCOC(=O)CSc1nnc(NC(=O)c2cccc(S(=O)(=O)N3CCCC3)c2)s1 | 1.2
56 | CCCNc1ncnc2sc(C)c(C)c12 | 0.3
57 | CCOC(=O)c1c(NC(=S)Nc2ccccc2)sc2c1CCN(C)C2 | i
58 | O=C(c1cc2ccccc2o1)N1CCN(c2ccccc2Cl)CC1 | 0.5
59 | CCN(CC)S(=O)(=O)c1ccc2c(c1)nc(SCC(N)=O)n2-c1ccc(OC)cc1 | i
60 | O=C(C1=C(O)C(=O)N(c2ncccn2)C1c1ccc(Cl)cc1)c1ccco1 (stereo unspecified) | i
61 | O=C(COc1ccccc1)N(Cc1ccccc1)c1nc(-c2ccccc2)cs1 | 0.9
62 | CCCCCCCCn1cc(C(C)=O)c(=O)[nH]c1=O | i
63 | CC1=NOC(=O)/C1=C/c1ccc(-c2ccc(Cl)cc2)o1 | i
64 | COCC(=O)NCc1ccc2c(c1)OCO2 | i
65 | COC(=O)c1cc(OC)c(OC)cc1NC(=O)c1c(-c2ccccc2Cl)noc1C | i
66 | Nn1c(Nc2ccccc2)nc2ccccc2c1=O | 0.9
67 | Clc1ccc(OCc2nc(-c3ccncc3)no2)c(Br)c1 | 1.4
68 | CCCC(=O)N1CC(=O)Nc2ccc(F)cc2C1c1ccccc1 (stereo unspecified) | 1.0
69 | COc1ccc(/C=N/NC(=O)c2ccoc2C)cc1COc1ccc(Cl)cc1 | i
70 | Cc1cc(C)cc(OCC(=O)NNC(=O)c2cc(C)[nH]n2)c1 | 1.6
71 | Cc1cc(NC(=O)CSc2nnc3c(C)cc4ccccc4n23)no1 | i
72 | Cc1ccc(C)n1CCN1CCN(CC(=O)Nc2cc(C(F)(F)F)ccc2Cl)CC1 | i
73 | CCOC(=O)CSc1nc2cc(C(=O)NCc3ccco3)ccc2c(=O)n1C1CCCCC1 | i
74 | CCN(CC)S(=O)(=O)c1ccc(C(=O)Nc2ccc(OCC(=O)N3CCOCC3)cc2)cc1 | i
75 | COc1ccc(OCC(=O)Nc2ccc(S(=O)(=O)N3CCCCCC3)cc2)cc1 | 0.7
76 | Cc1nnc(SCCn2c(N3CCC(C)CC3)nc3c2c(=O)[nH]c(=O)n3C)s1 | 3.2
77 | CCOC(=O)Nc1ccc2c(c1)Sc1ccccc1N2C(=O)CCN1CCOCC1 | 1.1
78 | COc1ccc2nc(SCC(=O)N3CCNC3=O)[nH]c2c1 | 0.2
79 | CC(C(=O)Nc1cc(C(F)(F)F)ccc1N1CCOCC1)N1C(=O)C2CC=CCC2C1=O (stereo unspecified) | 0.3
80 | Cc1cccc(S(=O)(=O)NCCC(=O)OC(C)C(=O)NC(=O)NC2CCCCC2)c1 (stereo unspecified) | i

Next section
No. | SMILES | H5N1 antiviral
81 | CC1=CC(C)(C)n2c(O)c(C3=NC(=S)NC3=O)c3cc(OC(=O)c4cccc5ccccc45)cc1c32 | 1.2
82 | COc1ccccc1CC(=O)Nc1ccc(-c2noc(COc3ccc(Cl)c(C)c3)n2)cc1 | i
83 | c1ccc2c(c1)sc1nnnn12 | i
84 | CCSc1nnc(-c2ccc(S(=O)(=O)N3CCCC3)cc2)n1C | i
85 | CC1=NN(C(N)=S)C(=O)C1N=Nc1ccccc1C (stereo unspecified) | i
86 | O=C(c1ccc(F)cc1)N1CCCCC(Sc2nnnn2-c2ccccc2)C1=O (stereo unspecified) | i
87 | CSc1ccccc1NC(=O)c1ccco1 | i
88 | COCCCNc1ncnc2nc[nH]c12 | 1.5
89 | CSc1ccc(S(=O)(=O)NCCSc2ccccn2)cc1 | i
90 | Cn1c(SCc2nc3ccccc3s2)nnc1-c1ccc2c(c1)OCO2 | 0.7
91 | Cn1c(=O)[nH]c(=O)c2c1nc(CN1CCOCC1)n2CCCO | 0.1
92 | CCOC(=O)Cn1c(N)c(C(=O)OC)sc1=S | 0.1
93 | Cc1ccc2nc(-c3ccc(Br)o3)oc(=O)c2c1 | i
94 | O=C1NC(=O)C(CCc2ccncc2)(C2CCCCC2)C(=O)N1 | 0.7
95 | Cc1cc(Cl)c(S(=O)(=O)N2CCCCCC2)cc1OCC(=O)NC1CCCCC1 | 3.4
96 | c1ccc(OCc2nc(-c3ccccc3)no2)cc1 | i
97 | CC(C)OC(=O)CC(=O)CSc1nc2c(cc1C#N)CCCCC2 | 0.3
98 | COc1ccc(-c2cc(C(F)(F)F)nc(N3CCN(C)CC3)n2)cc1 | i
99 | CCCCOc1ccc(C2C3CN(C(=O)OCC)CC=C3C(C#N)=C(N)C2(C#N)C#N)cc1OC (stereo unspecified) | 2.7
100 | COc1cc2c(cc1OC)CN(CC(=O)NC(=O)NCc1ccco1)CC2 | i
101 | Cc1cc(C(=O)CN2CC(C)OC(C)C2)c(C)n1-c1ccccc1 (stereo unspecified) | 1.3
102 | CCCCOc1cccc(-c2cc(C(=O)NNC(=S)NCC)c3ccccc3n2)c1 | i
103 | O=C(NCc1cccnc1)c1cccc(S(=O)(=O)N2CCOCC2)c1 | 1.6
104 | CC(C)(C)n1c(=O)[nH]c2c(c1=O)CCC2 | 0.0
105 | COc1nc(-c2ccccc2)cc(-c2ccccc2)n1 | 0.3
106 | CCOc1cc(NC(=S)Nc2ccccc2OC)c(OCC)cc1NC(=O)c1ccccc1C | i
107 | CCN(CC)CCNC(=O)Cn1c(-c2ccccn2)nc2ccccc21 | i
108 | CCCC(=O)N=C1SC2CS(=O)(=O)CC2N1c1ccc(C(C)=O)cc1 (stereo unspecified) | i
109 | C=CCn1cc(C(=O)NCc2cccnc2)c(=O)c2cc(S(=O)(=O)N(CC)CC)ccc21 | 1.5
110 | COc1ccc(C2=NOC(C(=O)Nc3c(C)n(C)n(-c4ccccc4)c3=O)C2)cc1 (stereo unspecified) | 0.5
111 | COc1ccc(NC(=O)CCN2CCN(S(=O)(=O)c3ccc(Cl)cc3)CC2)cc1 | i
112 | COc1cc(Cl)c(C)cc1NC(=O)CSc1ccc(C)cc1 | i
113 | CCOc1ccc(C2N(c3ccc(OC)cc3)C(=O)C3CCCN32)cc1OC (stereo unspecified) | i
114 | CC(C)c1ccc(OCC(O)CN2CCN(c3ccccc3)CC2)cc1 (stereo unspecified) | i
115 | CC1(C)SC(=S)N(/N=C/c2ccccc2)C1N(O)C(=O)Nc1ccc([N+](=O)[O-])cc1 (stereo unspecified) | 2.1
116 | O=c1c2ccccc2nnn1CSc1nnc(C2COc3ccccc3O2)n1-c1ccccc1 (stereo unspecified) | 2.7
117 | CCCOC(=O)CSc1nnc(-c2ccccc2Cl)o1 | 0.1
118 | O=C(c1ccccc1C(F)(F)F)N1CCN(S(=O)(=O)c2ccccc2)CC1 | 0.4
119 | c1ccc(CCc2nn3c(Cc4ccccc4)nnc3s2)cc1 | 0.3
120 | CC(C)(C)C(=O)/C=C/Nc1ccccc1O | i

The last 2 entries of the section before come first, to join the parts.
No. | SMILES | H5N1 antiviral
119 | c1ccc(CCc2nn3c(Cc4ccccc4)nnc3s2)cc1 | 0.3
120 | CC(C)(C)C(=O)/C=C/Nc1ccccc1O | i
121 | Cc1ccc(NC(=O)C(C)c2cccc(C(=O)c3ccccc3)c2)cc1 (stereo unspecified) | 0.4
122 | COc1ccc(OC)c(C(=O)CSc2nnc(-c3ccc(OC)c(OC)c3)o2)c1 | i
123 | COC(=O)CC1=C(C(=O)OC)C2(C(=O)N(C)c3ccccc32)C(C#N)=C(N)O1 (stereo unspecified) | i
124 | Cc1ccc(-c2csc(N)n2)s1 | i
125 | O=C(Oc1cccnc1)c1ccc(Cl)c(Cl)c1 | 0.1
126 | COc1ccc(NC(=O)c2oc3ccccc3c2NC(=O)c2ccco2)c(OC)c1 | i
127 | Cn1c[n+](C)cc1C(O)c1ccccc1 (stereo unspecified) | 0.2&0.3
128 | Cc1cc(C(=O)Nc2ccc3c(c2)OCO3)cs1 | i
129 | COc1ccccc1S(=O)(=O)Cc1ccc(C(=O)N2CCN(c3cccc(Cl)c3)CC2)o1 | i
130 | CCCn1c2ccccc2c2nnc(SCC(=O)OC)nc21 | 1.9
131 | COCCN1Cc2cccc(C(=O)N3CCN(c4ccccc4)CC3)c2C1=O | 0.1
